# High-throughput results deposited in PubChem by several laboratories.
# Beta2AR agonist: beta2AR agonists driving receptor internalization, primary screen, cell-based, FAP fluorogen, flow cytometry; Beta-2 adrenergic receptor (Homo sapiens), P07550; Am2.2-beta2AR cells; reference of the scale not given here; response, % (no concentration beside the values); 340,000 compounds, 0.43% hits; AID 504454, 2011;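 active means response above a set limit, near 3 SD of response in nonfluorescent compounds, cut at about 42% in these data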;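 further: stock transfer was 100 nL into about 11 µL; a reference agonist was the positive control; negative values mostly stem from fluorescent compounds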
# Target sequence (P07550 whole entry, looked up): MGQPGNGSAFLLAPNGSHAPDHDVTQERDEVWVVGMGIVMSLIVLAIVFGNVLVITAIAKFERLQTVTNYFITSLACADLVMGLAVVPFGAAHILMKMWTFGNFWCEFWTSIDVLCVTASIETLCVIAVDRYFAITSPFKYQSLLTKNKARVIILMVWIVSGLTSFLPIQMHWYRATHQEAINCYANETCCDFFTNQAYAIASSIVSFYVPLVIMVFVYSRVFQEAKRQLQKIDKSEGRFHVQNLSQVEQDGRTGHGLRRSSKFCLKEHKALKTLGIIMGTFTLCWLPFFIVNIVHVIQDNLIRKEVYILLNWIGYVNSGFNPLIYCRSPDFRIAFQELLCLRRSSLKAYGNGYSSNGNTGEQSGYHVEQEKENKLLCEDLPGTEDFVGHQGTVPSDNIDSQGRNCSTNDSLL
# Vif TR-FRET: inhibitors of Vif binding to APOBEC3G peptide, primary screen, biochemical, TR-FRET, GST-Vif 1-94, biotin-A3G peptide, dose response retest (AID 1117319); TR-FRET GST-Vif / biotin-A3G peptide binding; higher % means a stronger effect; test concentration not given here; strong numbers were not always called active; one-dose inhibition, %; IC50 in µM for titrated hits; 260,000 compounds, 0.57% hits;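 active means above the screen mean plus three standard deviations and confirmed in dose response; inconclusive means results disagree or hit not tested in dose response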;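 further: Vif residues 1-94 fused to GST binding biotinylated APOBEC3G peptide 110-148; 0% = full assay without inhibitor and 100% = GST in place of GST-Vif; retest series ran down from 100 µM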
# HNF4A DNA FP: change in binding of human HNF4A to DNA, primary screen, biochemical, fluorescence polarization, FITC-DNA; activity change, % at 10 µM; 1 h; 360,000 compounds, 0.3% hits; Hepatocyte nuclear factor 4-alpha (Homo sapiens), P41235; in the data active means activity change above about 30%, passing the limit was not always enough;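 further: controls were the assay level and a saturating level of protein; the project sought stronger binding though the title names inhibitors; some compounds called inactive have numbers as strong as hits; positive values seem to mean higher polarization but the record does not say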
# LANA-H2B inh: blockers of LANA interaction with H2A/H2B – biochemical, FP readout, HTS, primary screen | Protein LANA1 (Human herpesvirus 8 type P (isolate GK18)), Q9QR71 | cell-free LANA-H2A/H2B peptide, fluorescence polarization | inhibition, % (no concentration beside the values) | 320,000 compounds, 0.6% hits | AID 2629, 2010; in the data active means inhibition mostly above about 10%, no sharp cut-off; inactive means mostly below about 6.7%;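 further: stock transfer was 7.5 nL into about 10 µL; 0% = median of vehicle wells and 100% = median of positive control wells; one replicate is shown; the record names a cut of 25% in any replicate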
# ALR inh: inhibitors of human ALR sulfhydryl oxidase, primary screen, biochemical, H2O2 detection, HRP-luminol luminescence, single point; FAD-linked sulfhydryl oxidase ALR (Homo sapiens), P55789; purified ALR, DTT oxidation; inhibition, % (no concentration beside the values); 290,000 compounds, 3.8% hits; AID 485317, 2010;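 active means mean and each replicate at 75% or more; inconclusive means only one of the two met; inactive means neither met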;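 further: stock transfer was 7.5 nL into about 7.5 µL; 0% = neutral wells and 100% = wells with inactivated enzyme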
# Target sequence (P55789 whole entry, looked up): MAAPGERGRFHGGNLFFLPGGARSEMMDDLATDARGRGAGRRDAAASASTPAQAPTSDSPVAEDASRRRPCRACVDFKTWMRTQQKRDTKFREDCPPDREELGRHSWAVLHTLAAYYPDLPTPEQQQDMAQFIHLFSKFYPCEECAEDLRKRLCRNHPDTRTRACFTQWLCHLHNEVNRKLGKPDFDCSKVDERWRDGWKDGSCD
# Calb FLC: C. albicans growth inhibition with fluconazole, primary screen, CaCi-2 strain, Alamar Blue fluorescence; 300,000 compounds, 0.57% hits; AID 1979, 2009; C. albicans CaCi-2 (fluconazole-resistant clinical isolate) + fluconazole, 48 h; growth inhibition, % (concentration not given with the values);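 active means most replicates above 75%; inconclusive means exactly half above 75%; inactive means most below 75%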;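 further: all wells also contain fluconazole at 8 µg/ml as a sub-toxic cotreatment; 0% = median of DMSO wells and 100% = median of geldanamycin control wells; wells of about 8 µL received 7.5 nL stock; the first replicate is given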
# RanGTP-Imp inh: inhibitors of RanGTP-importin-beta interaction, primary screen, biochemical, FRET, CFP-Ran, YFP-importin-beta, homogeneous; cell-free CFP-Ran/YFP-importin-beta FRET ratio; 300,000 compounds, 1.1% hits; AID 2216, 2009; inhibition, % (test concentration not listed); Ran GTPase (GTP-bound) - importin-beta complex;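 active means most replicates above 15%; inconclusive means exactly half above 15%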;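 further: 0% = DMSO wells and 100% = Ran loaded with GDP instead of GTP; wells of about 40 µL received 100 nL stock; the first replicate is given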
# * = called active by the depositor; ? = inconclusive; . = no result given.
smiles	Vif TR-FRET	LANA-H2B inh	Calb FLC	HNF4A DNA FP	Beta2AR agonist	RanGTP-Imp inh	ALR inh
Cc1ccc(C(=O)N2CCN(c3ccccc3)CC2)cc1S(=O)(=O)N1CCOCC1	-1%	-19	3	0.0	8	2.0	70
O=C(CCl)NCc1c(Cl)cccc1-n1cccc1	20%	1.7	-8	-0.5	-1	-11	96*
Cc1cc(C(=O)NCC(=O)OCC(=O)N(C)C2CCCCC2)ccc1[N+](=O)[O-]	.	-3.7	0	-3.2	5	-0.5	0
Cc1nnc(NC(=O)CCCN2C(=O)c3ccccc3C2=O)s1	-2%	-3.2	15	2.7	0	-5.7	1
CC(NC(=O)Cc1ccccc1)c1nc2ccccc2[nH]1 (centres undefined)	-5%	11	-3	-4.0	0	-6.5	-21
COc1ccccc1CCNC(=O)CCn1c(=O)c2cccn2c2ccc(F)cc21	.	-0.9	4	2.5	-14	0.1	7
CC1(C)CC(=O)C(Sc2ccccc2)=C(O)C1	-6%	4.7	-9	0.7	3	4.1	.
CNC(=O)CS(=O)(=O)CC(=O)Nc1cc(OCCOC)c(Cl)cc1Cl	-1%	3.4	-25	6.3	2	?	-3
O=c1[nH]c(SCc2n[nH]c(=S)n2-c2ccccc2)nc2ccccc12	13%	1.3	-4	-1.0	8	4.2	0
CC(=O)Nc1sc2c(c1CN1CCN(C)CC1)CCCC2	-14%	-3.0	-15	7.8	-2	-3.1	8
CC(=O)NS(=O)(=O)c1ccc(NC(=S)NC(=O)COc2ccccc2C)cc1	-2%	-1.1	1	-2.6	6	0.6	24
COc1ccccc1CNC(=O)C1CCN(c2ncnc3c2nc2n3CCCCC2)CC1	.	1.3	-22	2.2	-7	0.9	-4
COc1ccc(CC(C)N2CCN(Cc3ccccc3)CC2)c(OC)c1 (centres undefined)	-1%	-7.0	11	-2.4	-6	-0.1	-3
CCN(CC)S(=O)(=O)c1ccc(N2CCOCC2)c(NC(=O)C(=O)c2c(-c3ccccc3)cc3ccccn23)c1	-5%	2.0	34	4.1	-6	1.5	1
CC(=O)Nc1ccc(/C=C/C(=O)c2ccc3c(c2)OCCO3)cc1	.	0.3	-17	11	-3	-3.7	7
CCC(CO)n1c(SCc2cc([N+](=O)[O-])cc3c2OCOC3)nc2ccccc2c1=O (centres undefined)	0%	-1.5	-2	-0.2	-21	-2.8	-8
COc1ccc(NC(=O)C2C3C=CC(C3)C2C(=O)O)cc1 (centres undefined)	-12%	0.8	-4	6.1	-3	-2.7	-2
O=C(O)Cc1sc(Nc2cccc3ccccc23)nc1-c1ccc(Cl)cc1	3%	-2.1	7	2.2	5	-1.9	-5
O=c1c2c(nc3nc(Cc4ccccc4)[nH]n13)CCC2	9%	2.3	-9	-3.2	11	0.3	-1
CCOc1ccc(NC(=O)CN(C)C(=O)CCCc2c[nH]c3ccccc23)cc1OCC	-4%	1.8	-1	3.7	0	0.6	7
CN1c2cccc3cccc(c23)N(C)C1(C)C	?	2.3	-12	3.6	0	-13	87*
Cc1ccc(C(=O)N/C(=C/c2cccs2)C(=O)N2CCCCC2)cc1	15%	-3.5	7	-2.5	4	0.4	88*
COc1ccc(-c2cc(C(=O)NCCN3CCOCC3)no2)cc1OC	.	8.6	-5	-2.6	-4	0.1	-1
COc1ccccc1NC(=O)N1CCN(C(=O)c2ccco2)CC1	.	5.2	4	0.8	-4	-3.4	-3
COc1ccc(S(=O)(=O)Nc2ccc(Nc3ccccc3)cc2)cc1	.	0.4	0	0.9	-3	0.5	70
Nc1ccc(Cl)c(S(=O)(=O)Nc2cccc(Cl)c2)c1	4%	2.7	33	-1.3	-5	-5.0	-17
CNC(=S)NNC(=O)c1noc(C)c1C(=O)N1CCN(C(c2ccccc2)c2ccccc2)CC1	.	-0.8	28	2.1	4	3.1	12
COc1cc(/C=C2/C(=N)N3N=C(CC(=O)N4CCOCC4)SC3=NC2=O)ccc1OCc1ccccc1	.	2.0	-3	-3.6	7	-0.5	.
COc1c(C)cccc1C(=O)NC(=S)Nc1cccc2nsnc12	0%	.	21	-0.4	11	.	.
O=C(N/N=C/c1cc(Br)c(Br)o1)c1ccc2c(c1)OCCO2	.	0.4	85*	-8.0	0	-3.9	2
O=C(NCc1cccnc1)c1ccc(COc2ccccc2Br)o1	-5%	-1.0	-4	0.8	0	7.7	-14
Cc1cccc(-n2nc3c(c2NC(=O)CCC2CCCCC2)CS(=O)C3)c1C (centres undefined)	17%	-1.3	-12	6.0	4	2.6	-1
O=C(NCC1CCCO1)c1ccc(N2CCCCC2)c([N+](=O)[O-])c1 (centres undefined)	.	-2.8	0	-2.5	-7	1.6	1
C/C(=N\N=C\c1ccccc1F)c1nnn(-c2nonc2N)c1C	.	-1.4	3	1.4	-7	1.2	2
O=C(CSc1ncnc2c1oc1ccccc12)OCc1ccccc1	4%	-2.8	5	0.7	2	-4.4	-17
O=C(O)CCCn1cc(NC(=O)COc2cccc(Cl)c2)cn1	.	2.7	-7	1.0	16	2.0	-19
COc1ccc(CCNC(=O)COC(=O)CNS(=O)(=O)c2ccc(SC)c([N+](=O)[O-])c2)cc1	-1%	-10	.	-3.3	-3	.	.
COc1ccc(C[C@H]2CN3C(=NC[C@H]3Cc3ccccc3)N2CCNC(=O)c2ccc(C)c(Br)c2)cc1	-3%	-6.8	34	-6.0	-4	?	.
CCc1cc(=O)n2[nH]c(-c3ccccc3)c(-c3ccccc3)c2n1	5%	-0.7	-11	2.6	18	3.9	.
COc1ccc(CNc2nc(-c3cccnc3)nn2C(=O)c2cccs2)cc1	11%	2.6	-10	0.2	-9	-2.0	5
Cc1nnc(SCC(=O)NNC(=O)CC#N)[nH]c1=O	.	1.9	?	-1.4	-1	4.7	-5
Cc1cccc(N(CC(=O)NCc2ccco2)C(=O)CNS(=O)(=O)c2ccc(F)cc2)c1	.	2.5	10	-3.6	0	2.4	2
COc1ccc(S(=O)(=O)N2CCC(C(=O)N[C@@H](C)C(=O)NC3CCCC3)CC2)cc1	-5%	-8.2	-7	0.6	-4	3.1	4
COc1ccc(CNc2nc(SCC(=O)NCc3ccco3)nc3ccccc23)cc1	3%	-0.6	0	0.9	-7	6.3	.
Cc1nn(C(C)(C)C)c(C)c1/C=N/OC(=O)Nc1ccc(Cl)c(Cl)c1	10%	-1.3	-16	1.1	-4	6.9	-15
CCN(CC)CCC(=O)NC(C)(C)Cc1ccc(O)cc1	19%	1.3	-12	3.2	4	-1.6	14
CCN(CC)C(=O)c1ccc(C(=O)c2ccccc2)cc1	0%	2.0	-6	2.8	-9	-2.3	-5
CN(c1ccc(OC(=O)CN2C(=O)NC3(CCCC3)C2=O)cc1)S(=O)(=O)c1ccccc1	1%	0.8	5	-3.9	8	-0.1	-12
Cc1ccc(-n2nc(C)cc2NC(=O)CC#N)cc1	0%	2.0	10	0.5	0	4.5	4
COC(=O)COc1cccc(NC(=O)COc2ccccc2)c1	5%	0.9	-2	-0.3	7	3.8	-4
O=C(Cc1ccccc1)NC1CCN(S(=O)(=O)c2ccc(C(=O)O)cc2)CC1	19%	3.6	3	-8.3	-7	-0.1	-7
COC(=O)C1=C(O)/C(=C/c2ccc(OCC(=O)Nc3ccccc3)cc2)N=C1C	-1%	-13	-10	2.0	-2	?	.
Cc1sc(NC(=O)c2ccco2)c(C(c2ccc(F)cc2)N2CCN(C)CC2)c1C (centres undefined)	-8%	-1.4	7	-0.8	6	-8.1	.
CCOc1ccc(N2C(=O)Nc3ccccc3C2(O)C(=O)NCc2ccccc2)cc1 (centres undefined)	9%	-6.4	-30	-4.1	6	-1.0	92*
Cc1ccc(-n2c(COc3c(C)cccc3C)nnc2SCC(=O)Nc2nccs2)cc1	1%	0.9	6	0.0	9	-3.6	-24
COc1ccc(-c2cc(C(=O)N3CCCC(C(F)(F)F)C3)c3ccccc3n2)cc1 (centres undefined)	-7%	-1.5	.	-1.4	8	.	-2

# Remaining list, next part:
smiles	Vif TR-FRET	LANA-H2B inh	Calb FLC	HNF4A DNA FP	Beta2AR agonist	RanGTP-Imp inh	ALR inh
O=C(NCC1CCCO1)c1ccc(NC(=O)C2CCCCC2C(=O)O)cc1 (centres undefined)	3%	-0.8	1	1.9	0	6.9	0
CC(C)(C)NC(=O)CC1C[C@H](C(=O)N2CCCCC2)[C@@]2(C)c3[nH]c4ccccc4c3CCN2C1=O (some centres undefined)	29%	0.9	.	4.2	-4	.	.
CC(C)C(=O)OCCN=C1NS(=O)(=O)c2ccccc21	2%	2.7	-7	-0.5	4	-2.5	-3
COc1cc(C(=O)NCc2ccccc2)ccc1OC(F)F	1%	-3.5	0	0.8	-3	2.0	-10
CCCCNC(=O)OCCNC(=O)Oc1cccc(C)c1	-1%	-0.4	9	0.5	3	5.6	0
COc1ccc(C2=NN(C)C(=NCc3ccccc3)SC2)cc1	-3%	0.3	-13	3.4	-4	4.7	1
Cc1cc(C(=O)NNC(=S)NCc2ccco2)nn1C	.	1.3	3	3.2	1	-0.4	8
CCOC(=O)N1CCN(C(=O)CCc2ccc(S(=O)(=O)NCC(C)C)cc2)CC1	.	0.1	-5	-5.6	-3	-0.4	-20
CCOC(=O)c1c(CNCCN(CC)CC)n(C)c2cc(Br)c(OC)cc12	1%	1.6	2	2.7	23	-0.1	-19
CC(=O)NC(Nc1nc2c(s1)CCCC2)(C(F)(F)F)C(F)(F)F	19%	-2.9	5	0.7	-3	4.6	.
CCOC(=O)c1c(C)n(C)c2ccc(OC(C)C(=O)OC)cc12 (centres undefined)	2%	1.7	4	1.4	4	-3.6	-3
COc1ccc(C(CNC(=O)Nc2ccc(Cl)cc2)N2CCN(C)CC2)cc1 (centres undefined)	.	9.6	2	1.7	4	10	10
O=C(NCC1CCCCC1)C1(CC2CC(c3ccc(Cl)cc3)=NO2)CCNCC1 (centres undefined)	.	4.3	19	-1.1	31	0.9	.
COc1ccc(C(CC(=O)N2CCOCC2)c2c(O)cc(OC)cc2OC)cc1 (centres undefined)	.	4.1	9	2.6	5	0.4	.
CS/C(N)=N/N=C/c1ccc2c(c1)OCO2	1%	-1.0	-15	-0.2	-2	1.0	26
CCC(=O)N(Cc1cc(=O)[nH]c2ccccc12)c1ccccc1C	13%	-2.5	-6	1.9	-14	1.7	16
O=C(Cc1cccs1)NCCc1csc(-c2ccccc2)n1	1%	1.5	-1	-1.4	-2	-1.6	.
CCn1c(SCC(=O)N/N=C\c2ccccc2OCC(=O)O)nnc1-c1ccc(Cl)cc1	19%	-0.5	-6	-1.1	-4	2.8	-2
CCN(C(=O)C(C)Sc1nnc(-c2ccncc2)n1C)C1CCCCC1 (centres undefined)	.	3.2	.	0.1	-3	.	-8
O=C(NS(=O)(=O)Oc1ccc(F)c(Cl)c1)OC[C@@H]1CCCN2CCCCC12 (some centres undefined)	2%	0.4	-12	6.7	-2	-0.8	0
COc1cc2c(cc1OC)-c1cc(Nc3ccccc3Br)nc(=O)n1CC2	3%	-0.1	-3	-0.7	7	0.7	9
